PV pol inh: poliovirus RNA polymerase inhibition; P03300; poliovirus polymerase elongation, fluorescence polarization; hits give low values; % elongation, % (compound at 16.7 µg/mL); hit rate 0.66% among 150,000; in the data active = % elongation below about 90%; note: some results filed as inactive read as strong as hits
Target sequence (P03300 1749-2209 limits assumed): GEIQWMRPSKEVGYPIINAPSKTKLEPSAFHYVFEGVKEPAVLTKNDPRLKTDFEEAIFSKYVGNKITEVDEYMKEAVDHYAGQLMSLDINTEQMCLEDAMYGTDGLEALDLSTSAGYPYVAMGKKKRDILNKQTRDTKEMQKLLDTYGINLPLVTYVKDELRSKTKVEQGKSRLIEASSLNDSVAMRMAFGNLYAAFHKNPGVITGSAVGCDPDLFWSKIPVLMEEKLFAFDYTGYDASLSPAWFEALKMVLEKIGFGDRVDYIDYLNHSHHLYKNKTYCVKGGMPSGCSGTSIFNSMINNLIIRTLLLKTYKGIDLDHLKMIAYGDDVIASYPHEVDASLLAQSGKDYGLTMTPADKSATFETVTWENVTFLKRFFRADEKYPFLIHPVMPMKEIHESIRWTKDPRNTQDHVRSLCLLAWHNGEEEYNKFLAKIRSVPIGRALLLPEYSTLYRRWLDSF
PV pol inh intensity: recorded beside PV pol inh, whose call it bears; % elongation; measured here: total intensity read-out; formula for this scale not given here;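 total fluorescence in place of polarization; lower means less elongation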
Numbers without * were called inactive.

Results for Cc1cccc(CSc2cn(CC(=O)N3CCCCCC3)c3ccccc23)c1 ?
PV pol inh: 104; PV pol inh intensity: 100

How did CCOc1ccc(NC(=O)CCCc2nc(-c3cccc(OC)c3)no2)cc1 do in these assays?
PV pol inh: 103; PV pol inh intensity: 108

What do the screens show for `COc1ccc(NC(=O)C(c2ccc(OC)cc2)N(C)C(=O)Cc2cccs2)cc1` (stereo not given)?
PV pol inh: 101; PV pol inh intensity: 102

How did CCC1CN(C(=O)N2CCC(C(=O)NCCC3=CCCCC3)CC2)c2cc(C)ccc2O1 (stereo not given) do in these assays?
PV pol inh: 109; PV pol inh intensity: 111

Results for CSc1ccc(CNC(=O)CN2C(=O)C3CCCCN3c3ccc(C(=O)N4CCCC4)cc32)cc1 (stereo not given) ?
PV pol inh: 113; PV pol inh intensity: 105

What do the screens show for `CC(=O)Nc1ccccc1OCc1cc(=O)n2c(C)csc2n1`?
PV pol inh: 111; PV pol inh intensity: 114

What do the screens show for `COc1ccc(C)cc1NC(=O)CN(C)S(=O)(=O)c1ccc2[nH]c(=O)oc2c1`?
PV pol inh: 105; PV pol inh intensity: 106

Results for COc1cccc(-c2nc(SCC(=O)NCc3ccccc3)c3c(=O)n(C)c(=O)n(C)c3n2)c1 ?
PV pol inh: 101; PV pol inh intensity: 106

Results for CCNC(=O)c1ccc(CSc2nc3ccncc3n2Cc2ccc(F)cc2)cc1 ?
PV pol inh: 109; PV pol inh intensity: 107

What do the screens show for `COc1ccc(C)cc1-n1c(SCC(=O)NCc2ccco2)nc2c([nH]c3ccccc32)c1=O`?
PV pol inh: 105; PV pol inh intensity: 112

How did Cc1ccc(NC(=O)CC(c2ccc(F)cc2)N2Cc3ccccc3C2=O)cc1C (stereo not given) do in these assays?
PV pol inh: 99; PV pol inh intensity: 104

How did O=c1c2cc3c(cc2n(Cc2ccccc2)c(=O)n1Cc1nc(-c2ccccc2)no1)OCO3 do in these assays?
PV pol inh: 116; PV pol inh intensity: 114

How did Cc1ccc(CCNC(=O)c2cnc3c(-c4ccc(F)cc4)c(C)nn3c2C)cc1 do in these assays?
PV pol inh: 76*; PV pol inh intensity: 74*

What do the screens show for `COc1ccc(-c2onc(C)c2C)cc1S(=O)(=O)NCC(C)c1ccccc1` (stereo not given)?
PV pol inh: 110; PV pol inh intensity: 105

What do the screens show for `O=C(CSc1nc2nccnc2c(=O)n1CCc1c[nH]c2ccccc12)Nc1ccc(F)cc1`?
PV pol inh: 102; PV pol inh intensity: 100

What do the screens show for `Cc1ccc(Cn2cnc3c(oc4ccccc43)c2=O)cc1`?
PV pol inh: 108; PV pol inh intensity: 115

What do the screens show for `COc1ccccc1CNC(=O)CCC1N=C2c3ccccc3N=C(SCc3ccc(Cl)cc3)N2C1=O` (stereo not given)?
PV pol inh: 110; PV pol inh intensity: 104

Results for CN1CCN(C(c2ccc(Cl)cc2Cl)c2sc3nc(-c4ccco4)nn3c2O)CC1 (stereo not given) ?
PV pol inh: 107; PV pol inh intensity: 107

How did COc1cccc(CNC(=O)Cc2c(C)c3cc4c(C)coc4cc3oc2=O)c1 do in these assays?
PV pol inh: 106; PV pol inh intensity: 110

Results for COc1ccc(OC)c(S(=O)(=O)N2Cc3ccccc3CC2C(=O)Nc2ccc(Cl)cc2)c1 (stereo not given) ?
PV pol inh: 116; PV pol inh intensity: 115

How did Cc1cccc(Oc2coc3cc(OCC(=O)NC4CCCCC4)ccc3c2=O)c1 do in these assays?
PV pol inh: 100; PV pol inh intensity: 101

How did O=C(CCOc1ccccc1)N(Cc1cccnc1)c1nc2c(F)cccc2s1 do in these assays?
PV pol inh: 101; PV pol inh intensity: 104

Results for Cc1ccc(OCC(=O)Nc2ccc(OCc3cc(=O)n4cccc(C)c4n3)cc2)cc1C ?
PV pol inh: 110; PV pol inh intensity: 114

What do the screens show for `COc1ccc(OC)c(NC(=O)C2CCCN(S(=O)(=O)c3ccc4c(c3)CCCC(=O)N4)C2)c1` (stereo not given)?
PV pol inh: 114; PV pol inh intensity: 113

What do the screens show for `COc1ccc(S(=O)(=O)c2c(Nc3ccc(F)cc3)sc(C(=O)c3ccc(C)cc3C)c2N)cc1`?
PV pol inh: 107; PV pol inh intensity: 105

How did COc1ccc(S(=O)(=O)NC(C)(C)C)cc1-c1nnc2c3ccccc3c(C)nn12 do in these assays?
PV pol inh: 102; PV pol inh intensity: 108

What do the screens show for `COC(=O)c1ccccc1NC(=O)Cn1c(=O)nc(-c2ccccc2)c2cc(Cl)ccc21`?
PV pol inh: 100; PV pol inh intensity: 107

How did Cc1ccc(C(=O)n2c(O)c(C3=NCCCCC3)c3ccccc32)cc1 do in these assays?
PV pol inh: 103; PV pol inh intensity: 100

Results for Oc1ccc(-c2nc3ccc(Cl)cn3c2Nc2ccc3c(c2)OCO3)cc1 ?
PV pol inh: 105; PV pol inh intensity: 107

What do the screens show for `CCCCc1nc(SCC(=O)Nc2ccc(S(N)(=O)=O)cc2)n[nH]1`?
PV pol inh: 105; PV pol inh intensity: 108

What do the screens show for `O=C1OC(C(=O)Nc2ccc(Cl)c(C(F)(F)F)c2)Cc2ccccc21` (stereo not given)?
PV pol inh: 103; PV pol inh intensity: 104

Results for Cc1cccc(OCC(O)Cn2c(=N)n(CCN3CCCCC3)c3ccccc32)c1 (stereo not given) ?
PV pol inh: 108; PV pol inh intensity: 106

How did Cc1cccc(C(=O)Nc2nnc(S(=O)(=O)N3CCOCC3)s2)c1 do in these assays?
PV pol inh: 116; PV pol inh intensity: 112

Results for Cc1ccc(C)c(N2CCN(C(=O)c3cc(C)nc4c3c(C)nn4-c3ccccc3)CC2)c1 ?
PV pol inh: 105; PV pol inh intensity: 95

How did CCc1ccc(NC(=O)CC2C(=O)N(c3cccc(OC)c3)C(=O)N2Cc2ccc(F)cc2)cc1 (stereo not given) do in these assays?
PV pol inh: 108; PV pol inh intensity: 103

Results for COc1ccc(Cl)cc1NC(=O)c1cc(S(=O)(=O)N(C)Cc2ccccc2)ccc1F ?
PV pol inh: 97; PV pol inh intensity: 106

What do the screens show for `CC(=O)c1cc2c(cc1N/C(=N/S(=O)(=O)c1ccc(C)cc1)c1ccccc1)OCO2`?
PV pol inh: 103; PV pol inh intensity: 106

Results for COc1cc([N+](=O)[O-])ccc1NC(=O)N1CCC2(CC1)Nc1cc(F)ccc1-n1cccc12 ?
PV pol inh: 112; PV pol inh intensity: 116

What do the screens show for `CCOc1ccc(NC(=O)CSc2cn(CC(=O)N3CCCCCC3)c3ccccc23)cc1`?
PV pol inh: 115; PV pol inh intensity: 114

Results for COc1ccccc1N1CCN(C(=O)c2cc3c(-c4ccccc4F)nn(C)c3s2)CC1 ?
PV pol inh: 107; PV pol inh intensity: 111

How did Cc1ccc2c(c1Br)C(O)(CC(=O)c1ccc(F)cc1)C(=O)N2 (stereo not given) do in these assays?
PV pol inh: 102; PV pol inh intensity: 107

How did CCOc1ccccc1NC(=O)Cn1c(=O)n(CC(=O)NCc2ccccc2Cl)c(=O)c2sccc21 do in these assays?
PV pol inh: 105; PV pol inh intensity: 102

How did CCOc1ccc(NC(=O)c2sc3nc4c(c(-c5ccc(OC)cc5)c3c2N)C(=O)CC(C)(C)C4)cc1 do in these assays?
PV pol inh: 107; PV pol inh intensity: 111

Results for CCCCN(CCCC)C1=C(C(=O)c2ccccc2)N(C)S(=O)(=O)c2ccccc21 ?
PV pol inh: 109; PV pol inh intensity: 113

Results for Fc1ccc(-c2noc3ncnc(NCc4cccc(Cl)c4)c23)cc1 ?
PV pol inh: 103; PV pol inh intensity: 103

How did Cc1ccc(OCC(=O)N(Cc2ccco2)Cc2ccco2)cc1 do in these assays?
PV pol inh: 108; PV pol inh intensity: 113

What do the screens show for `CCN(CC)C(=O)Cn1c(=O)n(-c2ccccc2)c(=O)c2c3c(sc21)CCC3`?
PV pol inh: 105; PV pol inh intensity: 97

How did COc1ccc(-c2cc(C(F)(F)F)nc(NCCc3ccccc3)n2)cc1 do in these assays?
PV pol inh: 103; PV pol inh intensity: 95

3 compounds picked at random from the list so far, as already listed:
Results for CCCCN(CCCC)C1=C(C(=O)c2ccccc2)N(C)S(=O)(=O)c2ccccc21 ?
PV pol inh: 109; PV pol inh intensity: 113

How did Cc1ccc2c(c1Br)C(O)(CC(=O)c1ccc(F)cc1)C(=O)N2 (stereo not given) do in these assays?
PV pol inh: 102; PV pol inh intensity: 107

What do the screens show for `CCN(CC)C(=O)Cn1c(=O)n(-c2ccccc2)c(=O)c2c3c(sc21)CCC3`?
PV pol inh: 105; PV pol inh intensity: 97

Continued:
What do the screens show for `CCOc1ccccc1N(C)C(=O)c1sc2nc3n(c(=O)c2c1C)CCCC3`?
PV pol inh: 99; PV pol inh intensity: 104

What do the screens show for `COc1cc(Cl)c(C)cc1NC(=O)c1ccc2c(SCC(=O)O)c3c(nc2c1)CCCC3`?
PV pol inh: 109; PV pol inh intensity: 109

Results for CCN(CC)C(=O)c1sc2c(c1C)c(=O)n(-c1ccc(Cl)c(Cl)c1)c(=O)n2Cc1ccccc1C#N ?
PV pol inh: 101; PV pol inh intensity: 110

How did Cc1cc(C)cc(Oc2coc3c(CN4CCN(C)CC4)c(O)ccc3c2=O)c1 do in these assays?
PV pol inh: 105; PV pol inh intensity: 110

What do the screens show for `COc1ccc(CCNC(=O)C2CCC(CNS(=O)(=O)c3ccc(C)cc3)CC2)cc1OC` (stereo not given)?
PV pol inh: 109; PV pol inh intensity: 110

How did Cc1ccc(-n2nc(CO)c(C(=O)NCc3cccnc3)n2)cc1 do in these assays?
PV pol inh: 104; PV pol inh intensity: 109

What do the screens show for `CCC(C)NC(=O)CSc1nc2c(sc3ccccc32)c(=O)n1CCc1ccc(OC)c(OC)c1` (stereo not given)?
PV pol inh: 100; PV pol inh intensity: 107

What do the screens show for `COc1cccc(NC(=O)CN2C(=O)CSc3ccc(S(=O)(=O)N4CCCC4)cc32)c1`?
PV pol inh: 109; PV pol inh intensity: 107

What do the screens show for `Clc1ccccc1-c1nnc(-c2ccccc2CNc2ccccc2)o1`?
PV pol inh: 101; PV pol inh intensity: 107

How did CSCC[C@@H](C(=O)Nc1cccc(F)c1)N1Cc2ccccc2C1=O do in these assays?
PV pol inh: 106; PV pol inh intensity: 112

Results for Cc1ccc(C)c(N2CCN(C(=O)c3cnn(-c4ccccc4Cl)c3C3CCN(C(=O)OC(C)(C)C)CC3)CC2)c1 ?
PV pol inh: 109; PV pol inh intensity: 113

How did CN1CCN(C(=O)Cn2c(-c3cccs3)cc3ccccc32)CC1 do in these assays?
PV pol inh: 108; PV pol inh intensity: 107

How did CCOc1cccc2cc(-c3nc4ccc(C(=O)O)cc4[nH]3)c(=O)oc12 do in these assays?
PV pol inh: 98; PV pol inh intensity: 103

What do the screens show for `CCCc1nn2c(=O)cc(COC(=O)c3ccc(NC(=O)CCc4ccccc4)cc3)nc2s1`?
PV pol inh: 107; PV pol inh intensity: 109

How did COc1cccc(C(=O)Nc2cc(-c3ccccc3)nn2-c2ccccc2)c1 do in these assays?
PV pol inh: 107; PV pol inh intensity: 112

How did Cc1nc(N2CCOCC2)c2c(C(=O)Nc3cccc(C(F)(F)F)c3)c(C)oc2n1 do in these assays?
PV pol inh: 110; PV pol inh intensity: 112

Results for NC(=O)C1(N2CCCCC2)CCN(C(=O)Nc2ccc(Cl)c(Cl)c2)CC1 ?
PV pol inh: 113; PV pol inh intensity: 111

What do the screens show for `CC(NC(=O)CCn1c(=O)c2cccn2c2ccc(F)cc21)c1ccccc1` (stereo not given)?
PV pol inh: 108; PV pol inh intensity: 107

What do the screens show for `CC(C)OCCCN1C(=O)c2[nH]nc(-c3ccccc3O)c2C1c1ccccc1F` (stereo not given)?
PV pol inh: 109; PV pol inh intensity: 104

How did O=C(CCS(=O)(=O)c1nc(-c2cccs2)cc(C(F)(F)F)n1)Nc1ccc(Br)cc1 do in these assays?
PV pol inh: 109; PV pol inh intensity: 114

How did COc1ccc(NC(=O)CSC2=Nc3ccccc3C3=NC(CC(=O)NCc4ccco4)C(=O)N23)cc1 (stereo not given) do in these assays?
PV pol inh: 99; PV pol inh intensity: 97

What do the screens show for `CC1CCCCN1CCCNC(=O)Cn1ncc2c3ccccc3n(Cc3ccccc3F)c2c1=O` (stereo not given)?
PV pol inh: 111; PV pol inh intensity: 111

What do the screens show for `O=C(Cn1c(=O)n(-c2ccccc2)c(=O)c2c3c(sc21)CCCC3)Nc1ccccc1`?
PV pol inh: 106; PV pol inh intensity: 107

Results for Cc1ccc(NC(=O)Cn2c(=O)n(-c3ccc(C)cc3)c(=O)c3c2cnn3C)cc1 ?
PV pol inh: 106; PV pol inh intensity: 108

Results for CCc1ccccc1NC(=O)Cn1nc(-c2cc(C)ccc2C)c2c(c1=O)CCCC2 ?
PV pol inh: 105; PV pol inh intensity: 110

Results for CCC(CC)c1nn2c(=O)cc(COc3ccc(NC(=O)c4ccc(C)cc4)cc3)nc2s1 ?
PV pol inh: 108; PV pol inh intensity: 113

Results for CC(C)(C)OC(=O)N1CCC(c2c(C(=O)NCc3ccco3)cnn2-c2ccccc2Cl)CC1 ?
PV pol inh: 106; PV pol inh intensity: 108

What do the screens show for `COc1cccc(N2CCN(C3=NS(=O)(=O)C(c4ccc(C)cc4)=C3C)CC2)c1`?
PV pol inh: 111; PV pol inh intensity: 117

Results for Cc1nc(-c2ccc(F)cc2)sc1CCNC(=O)C(=O)Nc1ccc2c(c1)OCCO2 ?
PV pol inh: 108; PV pol inh intensity: 104

By substructure: the entries above containing two or more sulfur atoms.
What do the screens show for `COc1ccc(S(=O)(=O)c2c(Nc3ccc(F)cc3)sc(C(=O)c3ccc(C)cc3C)c2N)cc1`?
PV pol inh: 107; PV pol inh intensity: 105

What do the screens show for `CCCCc1nc(SCC(=O)Nc2ccc(S(N)(=O)=O)cc2)n[nH]1`?
PV pol inh: 105; PV pol inh intensity: 108

How did Cc1cccc(C(=O)Nc2nnc(S(=O)(=O)N3CCOCC3)s2)c1 do in these assays?
PV pol inh: 116; PV pol inh intensity: 112

What do the screens show for `CCC(C)NC(=O)CSc1nc2c(sc3ccccc32)c(=O)n1CCc1ccc(OC)c(OC)c1` (stereo not given)?
PV pol inh: 100; PV pol inh intensity: 107

What do the screens show for `COc1cccc(NC(=O)CN2C(=O)CSc3ccc(S(=O)(=O)N4CCCC4)cc32)c1`?
PV pol inh: 109; PV pol inh intensity: 107

How did O=C(CCS(=O)(=O)c1nc(-c2cccs2)cc(C(F)(F)F)n1)Nc1ccc(Br)cc1 do in these assays?
PV pol inh: 109; PV pol inh intensity: 114

Assay outcomes (PubChem)

A portion of the library; count on the stated rates, not on these rows.
